Screens: PubChem BioAssay, NMMLSC
Bead autofluor: compound fluorescence in toxin protease inhibitor counterscreen; compound autofluorescence counterscreen, microsphere flow cytometry; active compounds read high; fluorescence intensity (concentration not given with the values); 360,000 compounds, 3.1% hits; AID 624483;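 active = at least 3 SD above the mean of all compounds, about 16000 in these data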;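 also: 100 nL of 1 mM stock went into each well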
The depositor's hits bear a star. Only part of the results is shown (hit frequency here may not be typical).

SMILES | Bead autofluor
CC1(C(=O)Nc2ccc(Cl)c(C(F)(F)F)c2)Cc2c(-c3ccccc3)ccnc2O1 (centres undefined) | 3777
COc1ccc(NS(=O)CCCc2ccccc2)cc1 (centres undefined) | 4296
CCc1noc(C)c1C(=O)OCC(=O)c1ccc(NC(=O)CC(C)C)cc1 | 2876
Cc1ccccc1/C(=N\S(=O)(=O)c1ccc(Br)cc1)Nc1ccccc1 | 3800
CNc1cccc(-c2cccc(C(=O)N3CCOCC3)c2)n1 | 3464
CCCCN(C=O)c1c(CC)nc2c(OCCn3cccc3)cccn12 | 3765
CCC1NC(=O)c2cccnc2-n2c1nc1cc(C)cc(C)c1c2=O (centres undefined) | 4550
COc1ccc(CC(N)c2csc(NC(=O)C(c3ccccc3)c3ccccc3)n2)cc1 (centres undefined) | 4072
CCCCNC(=O)C1(C)CCN1C(=O)c1cc(OC)ccc1Br (centres undefined) | 3876
CCOC(=O)C1CCCN(C(=O)c2ccc(OC)c(OC)c2)CC1 (centres undefined) | 2827
O=S1(=O)CC(N2CC=CC2)CN1Cc1cn(Cc2cccc(C(F)(F)F)c2)nn1 (centres undefined) | 4137
O=NN(CCCl)C(=O)NCCc1cccc[n+]1[O-] | 3968
CC(C)C[C@H]1CN([C@@H](Cc2ccccc2)CN2CCC[C@@H]2CN2C(=O)C(=O)NC[C@@H]2Cc2ccc(O)cc2)C(=O)C(=O)N1CC1CCCCC1 | 4078
COC(=O)c1c(N)[nH]c(C(=O)c2ccccc2)c1-c1ccc(Cl)cc1 | 4895
CC(=O)C1=CCC(c2cccc3ccccc23)N(S(=O)(=O)c2ccc(C)cc2)C1 (centres undefined) | 4368
CCOc1ccc(S(=O)(=O)N2CCOCC2)cc1NC(=O)CCN1C(=O)NC2(CCCC2)C1=O | 3862
CCc1ccc(C(=O)OCC(=O)Nc2c(C)n(C)n(-c3ccccc3)c2=O)cc1 | 3700
Cc1ccc(NC(=O)CSCC(=O)N(C)CC(=O)Nc2c(C)cccc2C)cc1 | 2846
Cc1ccc(C)c(NCCCCCCCC(=O)O)c1 | 5451
c1ccc(CNc2nc(NCC3CC3)nc3cc(-c4ccccc4)sc23)cc1 | 2961
OC(c1ccc(F)cc1)c1nc(-c2ccncc2)cs1 (centres undefined) | 3745
Cc1ccc(C(O)c2ncc(-c3ccc(C(F)(F)F)cc3)[nH]2)cc1F (centres undefined) | 3808
Cc1ccc(-c2cc3nc(-c4ccccc4)cc(NCCCO)n3n2)cc1 | 4106
CCOC(=O)c1cc2cc(OC)ccc2n1C1CCN(Cc2ccccc2)CC1 | 7750
C[C@@H]1CN([C@@H](C)CO)C(=O)c2c(c3ccccc3n2C)-c2ccccc2CO[C@H]1CN(C)C(=O)[C@H](Cc1ccccc1)N(C)C | 4590
CC1(C)OC(=O)NC1c1ccccc1 (centres undefined) | 3997
CCOC(=O)C1(C)CCCN(C(=O)c2ccc(OC(F)F)cc2)C1 (centres undefined) | 3484
COc1cccc(NC(=O)C2(C)CCN2C(=O)Cc2ccc(C(C)C)cc2)c1 (centres undefined) | 3885
COc1cccc(C2=Cc3ccc(F)cc3C(CC(C)=O)N2c2ccc(-c3cc(OC)c(OC)c(OC)c3)cc2)c1 (centres undefined) | 4210
CC1(C(=O)NS(=O)(=O)c2cccc(OC(F)F)c2)CCN1C(=O)CCc1cccs1 (centres undefined) | 3763
Cc1ccc(C)c(CC(=O)N2CCCCC2c2cc(C(=O)Nc3ccc(F)c(Cl)c3)no2)c1 (centres undefined) | 3844
O=S1(=O)CC(N2CCN(CCO)CC2)CN1Cc1cn(Cc2ccc(F)cc2)nn1 (centres undefined) | 6228
Cc1n[nH]c2ccc([N+](=O)[O-])cc2c1=O | 3480
O=C(NCc1ccccc1Cl)[C@H]1CCCN1C(=O)[C@H]1CCCN1C(=O)c1ccc(Cl)cc1 | 4328
CC(C)C[C@H]1CN([C@@H](Cc2ccc(O)cc2)CN2CCC[C@H]2CN2C(=O)C(=O)NC[C@@H]2Cc2ccccc2)C(=O)C(=O)N1CCc1ccccc1 | 5778
CCn1nccc1NC(=O)c1csc([C@H]2C[C@H](O)[C@@H](CO)O2)n1 | 3445
Cc1noc(C)c1-c1ccc(C(=O)NCc2ccncc2)c2occc12 | 3468
OC(c1ccc(F)cc1)c1nc(-c2ccoc2)cs1 (centres undefined) | 3734
COc1cc(CCN(C(=O)c2cc3ccccc3[nH]2)C(C)c2nc3ccccc3[nH]2)cc(OC)c1 (centres undefined) | 5732
C#CCN(C[C@H]1[C@H](OC(=O)Nc2cccs2)[C@H](OC(=O)Nc2cccs2)C[C@H]2C(=O)N(c3ccccc3)C(=O)[C@@H]12)S(=O)(=O)c1ccc(C)cc1 | 2965
CCCCCC(=O)N1C[C@@H](n2cc(COC(=O)c3ccccc3)nn2)[C@H](O)C[C@@H]1c1ccccc1 | 3789
COc1cccc(-c2cnc(C(O)c3cccc(CN4CCCCC4)c3)[nH]2)c1 (centres undefined) | 4184
Cc1ccc(-c2ccc(CN3C(CC(C)C)C(=O)N(Cc4cn(Cc5ccco5)nn4)CCS3(=O)=O)cc2)cc1 (centres undefined) | 3405
Cc1cccc(S(=O)(=O)NC(=O)C2(C)CCN2C(=O)c2ccc(C3CCCCC3)cc2)c1 (centres undefined) | 2886
CN(C)CCCNC(=O)c1ccc(-c2cc3nc(NCc4cccnc4)n(C)c(=O)c3s2)cc1 | 2879
Cc1cc2c(c(C#N)c1C)NC=NC2C (centres undefined) | 3922
COCCNC(=O)C1(C)CCN(C(=O)c2cc(C(C)(C)C)nn2C)C1 (centres undefined) | 3837
O=C(NCC(F)(F)F)c1ccc(S(=O)(=O)NCCc2ccc3c(c2)OCCO3)cc1 | 3512

Structural class, the compounds so far containing an aryl methoxy group (9)
SMILES | Bead autofluor
COc1ccc(NS(=O)CCCc2ccccc2)cc1 (centres undefined) | 4296
COc1ccc(CC(N)c2csc(NC(=O)C(c3ccccc3)c3ccccc3)n2)cc1 (centres undefined) | 4072
CCCCNC(=O)C1(C)CCN1C(=O)c1cc(OC)ccc1Br (centres undefined) | 3876
CCOC(=O)C1CCCN(C(=O)c2ccc(OC)c(OC)c2)CC1 (centres undefined) | 2827
CCOC(=O)c1cc2cc(OC)ccc2n1C1CCN(Cc2ccccc2)CC1 | 7750
COc1cccc(NC(=O)C2(C)CCN2C(=O)Cc2ccc(C(C)C)cc2)c1 (centres undefined) | 3885
COc1cccc(C2=Cc3ccc(F)cc3C(CC(C)=O)N2c2ccc(-c3cc(OC)c(OC)c(OC)c3)cc2)c1 (centres undefined) | 4210
COc1cc(CCN(C(=O)c2cc3ccccc3[nH]2)C(C)c2nc3ccccc3[nH]2)cc(OC)c1 (centres undefined) | 5732
COc1cccc(-c2cnc(C(O)c3cccc(CN4CCCCC4)c3)[nH]2)c1 (centres undefined) | 4184

Next part:
SMILES | Bead autofluor
Cc1oc(-c2ccc(Cl)cc2)cc1C(=O)N1CCC1(C)C(=O)O (centres undefined) | 3725
OC[C@@H]1CN(Cc2ccc(-c3ccccc3)cc2)C[C@H](n2cnc3c(NC4CCC4)ncnc32)O1 | 4646
COc1ccc(-c2ccc(CN3C(C(C)C)C(=O)N(Cc4cn(Cc5ccco5)nn4)CCS3(=O)=O)cc2)cn1 (centres undefined) | 3907
O=S1(=O)CCN(Cc2ccccc2)CC1 | 3670
CCOC(=O)CCCCCC(=O)Nc1ccc2c(c1)C(=O)N([C@@H](C)CO)C[C@H](C)[C@H](CN(C)C(=O)NC(C)C)OCCCC[C@H](C)O2 | 3459
CCOC(=O)C1C(C(=O)OCC)C(C)(C)C1N(C)C (centres undefined) | 3594
COc1ccc(NC(=O)Cc2csc(NC(=O)Nc3ccccc3OC)n2)cc1 | 3788
C(=NNC1=NCCN1)c1ccnc2ccccc12 | 5525
CCCCn1c(N)c(N(CCC(C)C)C(=O)c2c(CC)noc2C)c(=O)[nH]c1=O | 2959
CCOC(=O)[C@]12CCC=C1N(Cc1ccc3c(c1)OCO3)C(=O)[C@H](CC(=O)N1CCSCC1)C2 | 5444
CC1(C(=O)Nc2ccc3c(c2)OCCO3)CCN1C(=O)Cc1cc(F)ccc1F (centres undefined) | 3870
O=C(COC(=O)C1COc2ccccc2O1)c1ccc(F)cc1 (centres undefined) | 3546
CCCCCCCCN1C(=O)[C@H](CC(=O)N2CCCCC2)C[C@@]2(C(=O)OC)CCCCC=C12 | 4259
COc1cccc(S(=O)(=O)N(C)C[C@@H]2Oc3ncc(C#CCN(C)C)cc3C(=O)N([C@H](C)CO)C[C@H]2C)c1 | 3769
CCCCN(C)C(=O)c1sc(=O)n(CC(=O)c2ccccc2OC)c1C | 5527
Cc1ccccc1-c1ccc(CN2C(C)C(=O)N(Cc3cn(Cc4ccco4)nn3)CCS2(=O)=O)cc1 (centres undefined) | 4568
CC(C)C[C@@H](CN1CCC[C@@H]1CN1C(=S)NC[C@@H]1Cc1ccccc1)N1C[C@H](Cc2ccc(O)cc2)N(CC2CCCCCC2)C1=S | 5536
O=C(Nc1ccc2c(c1)OCO2)c1cc(C2CCCCN2C(=O)c2ccc(Cl)cc2)on1 (centres undefined) | 2821
C[C@H]1Cn2cnc(C(=O)NCC(=O)OC(C)(C)C)c2C(=O)N1 | 3321
O=C(CC1c2ccccc2C=C(c2ccsc2)N1c1ccc(-c2cccnc2)cc1)C1CC1 (centres undefined) | 5151
Cc1ccc(S(=O)(=O)N2CC3(O)CN(C(=O)OC(C)C)N(C(=O)OC(C)C)CC3(OC(=O)Nc3c(C)noc3C)C2)cc1 (centres undefined) | 2947
C[C@H](O)[C@@H]1CN2CCc3c([nH]c4ccc(-c5ccc6c(c5)OCO6)cc34)[C@@H]2C[C@@H]1N(C)C(=O)NC1CCCCC1 | 4276
CC1Cc2nc(SCC(=O)NCC3CCCO3)n(-c3ccccc3)c(=O)c2S1 (centres undefined) | 3697
C[C@H](CO)N1C[C@H](C)[C@@H](CN(C)S(=O)(=O)c2cn(C)cn2)OCc2cn(nn2)CCCC1=O | 3792

3 of these compounds in another layout.
O=C(CC1c2ccccc2C=C(c2ccsc2)N1c1ccc(-c2cccnc2)cc1)C1CC1 (centres undefined)
  Bead autofluor = 5151
Cc1ccc(S(=O)(=O)N2CC3(O)CN(C(=O)OC(C)C)N(C(=O)OC(C)C)CC3(OC(=O)Nc3c(C)noc3C)C2)cc1 (centres undefined)
  Bead autofluor = 2947
C[C@H](O)[C@@H]1CN2CCc3c([nH]c4ccc(-c5ccc6c(c5)OCO6)cc34)[C@@H]2C[C@@H]1N(C)C(=O)NC1CCCCC1
  Bead autofluor = 4276

Additional entries.
SMILES | Bead autofluor
Cn1c(=O)c2cc(NC(=O)CCc3ccc4c(c3)OCO4)ccc2n1Cc1ccc(F)cc1 | 3614
CC1(Cc2cc(Cl)ccc2C(F)(F)F)C(=O)Nc2ccc(S(=O)(=O)NC3CCCCC3)cc21 (centres undefined) | 3910
C[C@@H]1CN([C@@H](C)CO)C(=O)c2cc(NC(=O)Nc3ccccc3)ccc2O[C@@H](C)CCCCO[C@H]1CN(C)C(=O)Nc1ccc(C(F)(F)F)cc1 | 3998
CN(C)C(=O)c1cc2c(c(-c3cccc(C4=CCCCC4)c3)n1)[C@@H](CCO)N(S(=O)C(C)(C)C)C2 (some centres undefined) | 4493
CC1(C(=O)NS(=O)(=O)c2cccs2)CCN1C(=O)C1(c2ccccc2)CCCC1 (centres undefined) | 3738
O=C(Nc1cccc(Cl)c1)Nc1nnc([C@H]2C[C@H](O)[C@@H](CO)O2)s1 | 2901
Cc1ccccc1-c1cc2nc(NCc3ccccc3)n(C)c(=O)c2s1 | 3779
CCCCC(c1nc2ccccc2[nH]1)N(C(=O)c1ccccc1)c1ccccc1[N+](=O)[O-] (centres undefined) | 5883
CC(=O)C1=CCC(c2ccccc2)N(S(=O)(=O)c2ccc(C)cc2)C1 (centres undefined) | 4361
CCOC(=O)CNC(=O)N1C[C@H]2CON(C)[C@H]2C[C@H]1c1ccccc1Br | 3405
COc1cc2c(c(O)c1OC)C1Cc3ccc(OC)c(OC)c3CN1CC2 (centres undefined) | 5777
Nc1nc(CSc2nnnn2-c2ccccc2)nc(Nc2ccccc2)n1 | 4029
CCCCCCn1c(=O)n2n(c1=O)C[C@]1(OC(=O)Nc3cccs3)CN(S(=O)(=O)c3ccc(C)cc3)C[C@]1(O)C2 | 2885
O=C(C=CC(=O)Nc1ccc(F)cc1F)Nc1ccc(F)cc1F | 6035
COC(=O)[C@@H]1N=C(c2ccc(OC)cc2)O[C@]12C(=O)N(Cc1ccccc1)c1ccccc12 | 4781
O=C(COC(=O)COc1ccc(Br)cc1)NC1CCS(=O)(=O)C1 (centres undefined) | 3958
CCc1ccc2c(c1)NC(=O)C2(C)Cc1ccc(F)cc1 (centres undefined) | 4079
O=C(Nc1ccc(Cl)cc1)c1csc([C@@H]2O[C@H](CO)[C@H](O)[C@H](O)[C@H]2O)n1 | 3611
CCc1ccc(N2CC(C(=O)N(CC)CC(=O)Nc3c(F)cccc3F)CC2=O)cc1 (centres undefined) | 4047
CCc1cccc(NC(=O)CSc2nc(C)cs2)c1 | 3936
C[C@H]1CN([C@@H](C)CO)S(=O)(=O)c2ccc(/C=C/c3ccccc3)cc2O[C@H]1CN(C)C(=O)NC1CCCCC1 | 3789
COC(=O)N(C)C[C@H]1OCc2cnnn2CCCC(=O)N([C@@H](C)CO)C[C@H]1C | 3340
CC1(C(=O)Nc2ccc3c(c2)OCO3)Cc2c(-c3cccc(C(N)=O)c3)ccnc2O1 (centres undefined) | 2865
Cc1cccc(COC[C@H](CC(C)C)N2CCN(C(=O)c3ccc(C(F)(F)F)cc3)CCC2=O)c1 | 6041
COC(=O)[C@@]1(Cc2ccc(F)cc2)[C@H]2c3cc(C(=O)N4CCCC4)n(Cc4ccc(S(C)(=O)=O)cc4)c3C[C@H]2CN1C(=O)c1ccccc1 | 5592
NC(Cc1ccc(F)cc1)c1csc(Nc2cc(NCc3ccco3)ncn2)n1 (centres undefined) | 3812
Clc1ccccc1-c1cccc2nccn12 | 4137
O=C(NC1CCCC1)C1c2ccccc2OCC(=O)N1Cc1cccnc1 (centres undefined) | 4342
Cc1ccc2c(CN3CCN(c4ccccc4)CC3)cc(=O)oc2c1 | 5896
OC(c1ccccc1)(c1nc(-c2csc3ccccc23)cs1)C(F)(F)F (centres undefined) | 3739
O=C(Nc1cccc(S(=O)(=O)N2CCCC2)c1)[C@@H]1O[C@H](CO)[C@@H](O)[C@H]1O | 3676
